Assay outcomes deposited in PubChem by several laboratories.
Beta cell apopt: blocks beta cell apoptosis; INS-1E cytokine-induced death, ATP luminescence, 48 h; percent of positive-control rescue, neutral wells zero; protection from apoptosis, % (concentration not given with the values); actives 0.8% (n = 300,000); AID 435005;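 active = all replicates at 75% or more, or half of them and the mean; inconclusive = half reach 75% but not the mean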;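 also: 0% = cytokine-treated negative control wells and 100% = positive control rescue; higher means more ATP so stronger rescue from cytokine killing; wells of about 40 µL received 100 nL stock; the first replicate is given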
RanGTP-Imp inh: inhibitors of RanGTP-importin-beta interaction, primary screen, biochemical, FRET, CFP-Ran, YFP-importin-beta, homogeneous | cell-free CFP-Ran/YFP-importin-beta FRET ratio | inhibition, % (no concentration beside the values) | actives 1.1% (n = 300,000) | AID 2216;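 active = most replicates above 15%; inconclusive = exactly half above 15%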;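 also: 0% = DMSO wells and 100% = Ran loaded with GDP instead of GTP; wells of about 40 µL received 100 nL stock; the first replicate is given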
Calb FLC: C. albicans growth modulation with fluconazole; actives 0.57% (n = 300,000); AID 1979; C. albicans CaCi-2 (fluconazole-resistant clinical isolate) + fluconazole, Alamar Blue growth, 48 h; growth inhibition, % (no concentration beside the values);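 active = most replicates above 75%; inconclusive = exactly half above 75%; inactive = most below 75%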;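 also: all wells also contain fluconazole at 8 µg/ml as a sub-toxic cotreatment; 0% = median of DMSO wells and 100% = median of geldanamycin control wells; wells of about 8 µL received 7.5 nL stock; the first replicate is given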
A1 inh: inhibitors of the anti-apoptotic protein A1, read as caspase activation; MEF A1-2A-BIM cells, Caspase-Glo 3/7 luminescence, 3 h; percent of clofoctol response, vehicle zero; caspase activation, % (no concentration beside the values); actives 0.066% (n = 330,000); AID 2462;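 active = over half of replicate activation scores above 10%, or exactly half above 10 with the replicate mean above 10; inconclusive = replicate mean below 10 yet half the replicates above 10; inactive = over half of replicates below 10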;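 also: wells of about 30 µL received 50 nL stock; many hits fall short of the cut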
Vif TR-FRET: inhibitors of Vif binding to APOBEC3G peptide, primary screen, biochemical, TR-FRET, GST-Vif 1-94, biotin-A3G peptide, dose response retest (AID 1117319) | TR-FRET GST-Vif / biotin-A3G peptide binding; higher % means a stronger effect; test concentration not given here; strong numbers were not always called active | inhibition, %, or IC50 in µM where a hit was titrated | actives 0.57% (n = 260,000);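 active = above the screen mean plus three standard deviations and confirmed in dose response; inconclusive = results disagree or hit not tested in dose response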;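 also: Vif residues 1-94 fused to GST binding biotinylated APOBEC3G peptide 110-148; 0% = full assay without inhibitor and 100% = GST in place of GST-Vif; retest series ran down from 100 µM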
LANA-H2B inh: blocks KSHV LANA binding to histone H2A/H2B; cell-free LANA-H2A/H2B peptide, fluorescence polarization; inhibition, % (concentration not given with the values); actives 0.6% (n = 320,000); AID 2629; Q9QR71; in the data active = inhibition mostly above about 10%, no sharp cut-off; inactive = mostly below about 6.7%;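 also: stock transfer was 7.5 nL into about 10 µL; 0% = median of vehicle wells and 100% = median of positive control wells; one replicate is shown; the record names a cut of 25% in any replicate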
Target sequence (Q9QR71 whole entry, looked up): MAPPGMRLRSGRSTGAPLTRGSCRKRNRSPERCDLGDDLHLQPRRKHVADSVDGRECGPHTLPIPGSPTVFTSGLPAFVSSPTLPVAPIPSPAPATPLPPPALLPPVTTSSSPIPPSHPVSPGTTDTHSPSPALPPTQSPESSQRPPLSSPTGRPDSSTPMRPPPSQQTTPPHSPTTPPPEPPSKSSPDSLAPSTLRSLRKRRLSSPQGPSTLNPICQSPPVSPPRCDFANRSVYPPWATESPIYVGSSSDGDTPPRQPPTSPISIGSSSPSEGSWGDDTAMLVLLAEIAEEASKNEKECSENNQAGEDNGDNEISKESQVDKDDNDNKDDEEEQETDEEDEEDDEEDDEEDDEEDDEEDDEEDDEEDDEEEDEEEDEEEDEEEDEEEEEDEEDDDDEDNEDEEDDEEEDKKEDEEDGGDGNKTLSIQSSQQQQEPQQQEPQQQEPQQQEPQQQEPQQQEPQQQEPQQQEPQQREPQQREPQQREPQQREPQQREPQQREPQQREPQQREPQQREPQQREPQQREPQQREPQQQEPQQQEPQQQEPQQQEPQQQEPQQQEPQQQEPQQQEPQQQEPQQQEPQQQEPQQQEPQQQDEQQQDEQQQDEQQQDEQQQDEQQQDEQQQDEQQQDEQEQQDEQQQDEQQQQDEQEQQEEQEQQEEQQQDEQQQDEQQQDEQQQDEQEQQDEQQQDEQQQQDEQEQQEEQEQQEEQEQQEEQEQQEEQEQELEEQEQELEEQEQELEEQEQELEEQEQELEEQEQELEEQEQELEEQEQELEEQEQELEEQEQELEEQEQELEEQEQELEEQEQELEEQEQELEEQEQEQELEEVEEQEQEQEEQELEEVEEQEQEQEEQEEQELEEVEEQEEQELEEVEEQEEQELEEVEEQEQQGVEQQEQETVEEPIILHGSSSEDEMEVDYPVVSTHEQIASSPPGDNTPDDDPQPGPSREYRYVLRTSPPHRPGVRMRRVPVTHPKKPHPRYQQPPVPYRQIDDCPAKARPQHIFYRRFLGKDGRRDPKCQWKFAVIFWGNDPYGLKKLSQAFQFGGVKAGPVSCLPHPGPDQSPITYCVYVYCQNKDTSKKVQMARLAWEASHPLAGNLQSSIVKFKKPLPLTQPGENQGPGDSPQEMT
AF4-AF9 inh: blocks AF4 peptide binding to human AF9 | inhibition, % at 10 µM | AlphaScreen, biotin-AF4 peptide binding to FLAG-AF9 | AID 651704 | actives 0.47% (n = 350,000);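 active = every replicate reaching a set inhibition limit, whatever the replicate mean, cut at about 25% in these data; inconclusive = mean inhibition reaches that limit but some replicates miss it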;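 also: 0% = plate neutral control median and 100% = total signal loss; the record names both 10 and 1 µM as test concentration; the first replicate is given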
T cruzi repl: T. cruzi replication inhibition; T. cruzi beta-gal in NIH3T3, luminescence, 90 h; inhibition, % (test concentration not listed); actives 1.4% (n = 300,000); AID 1885;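 active = mean inhibition across valid replicates above about 55%, limit read from the data; inconclusive = mean below that limit but half or more replicates reach it; inactive = mean below it, under half of replicates reach it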;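 also: signal also drops with host cell toxicity which is not excluded here; 0% = plate median of DMSO wells and 100% = zero luminescence signal; higher percent means less beta-gal luminescence so fewer parasites; stock transfer was 50 nL into about 50 µL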
* = called active by the depositor; ? = inconclusive; . = no result given. Rows were taken by chance; 4.3% or so of the library scored in one or more.

SMILES	Beta cell apopt	RanGTP-Imp inh	Calb FLC	A1 inh	Vif TR-FRET	LANA-H2B inh	AF4-AF9 inh	T cruzi repl
Cc1cc(=O)oc2cc(OC(C)C(=O)Nc3ccc(N4CCOCC4)cc3)ccc12 (stereo not drawn)	11	5.9	-1	0.0	22%	-3.9	.	-3
O=C(Nc1ncccn1)C1CCCCC1	0	?	15	0.0	-14%	-0.6	-4.3	-7
COCCn1c(Cc2ccccc2)nnc1SCC(=O)N1CCCCC1C (stereo not drawn)	-13	-3.0	-9	-0.4	-1%	-4.8	.	2
O=C(CCSc1ccc(Cl)cc1)N1CCOCC1	-1	-19	1	0.6	-8%	2.7	.	-7
CCNC(=S)NNC(=O)c1cccnc1	-3	-2.1	5	0.1	.	-1.4	.	-8
CCOC(=O)N1CCN(S(=O)(=O)N2CCCC(C(=O)NCCc3ccccc3)C2)CC1 (stereo not drawn)	-6	3.8	-2	0.4	.	-3.3	0.9	-46
Cc1[nH]c2ccccc2c1C(=O)COC(=O)c1ccccc1O	0	.	.	-1.2	-8%	-4.0	-1.6	.
N/C(=N\OC(=O)c1ccoc1)c1ccc(Br)cc1	-12	2.9	0	-0.2	0%	6.5	-2.4	-4
Cc1cc(C(F)(F)F)n2ncc(-c3ccccc3)c2n1	-4	5.2	-1	0.6	7%	-0.6	.	-1
Cc1ccc(N/C=C2\CCCCC2=O)c(C)c1	-8	2.0	-14	2.9	5%	0.1	2.5	-14
CCSc1nnc(NC(=O)C(C)(C)C)s1	2	-3.3	1	-1.3	0%	1.3	.	19
O=C(CNC(=O)c1ccccc1Cl)N/N=C/c1ccc2c(c1)OCO2	-2	3.7	5	0.5	2%	-1.2	-28	-9
COc1ccc(C(C(=O)NC(C)(C)C)N(Cc2cccnc2)C(=O)CCC(=O)Nc2cc(C)on2)cc1 (stereo not drawn)	-2	-1.7	-3	-0.9	-4%	-8.1	3.2	-12
COc1ccc(NC(=O)C2CC(c3c(F)cccc3Cl)=NO2)cc1 (stereo not drawn)	5	0.2	6	0.2	.	5.2	-2.0	-1
CCOc1ccccc1NC(=O)CCCN1C(=S)NC(C)(C)CC1C (stereo not drawn)	-4	-0.9	-20	0.2	.	-0.7	.	13
C=C(C)c1cccc(C(C)(C)NC(=O)Nc2ccc(C(C)=O)cc2)c1	-2	?	-6	0.3	.	4.0	.	5
Cc1ccc(O)c(C(=O)c2cnn(C(=O)COc3ccc(Cl)cc3)c2)c1	6	1.0	-5	-0.8	19%	-1.1	.	8
OCCC1CN(Cc2cccc(-c3ccco3)c2)CCN1Cc1ccsc1 (stereo not drawn)	-13	-1.1	-17	0.6	3%	-1.9	8.9	34
CCOc1ccc2[nH]c3c(NCCCOC)ncnc3c2c1	-4	0.4	-2	2.1	-9%	3.7	-1.7	-4
CCCC(C(=O)NC1CCCC1)N(CCN(CC)CC)C(=O)c1snc(C(N)=O)c1N (stereo not drawn)	-3	-3.5	-13	0.4	.	-1.9	2.1	-8
CNC(=O)CSc1nnc(-c2ccc3c(c2)OCO3)n1C	-8	-1.7	-3	1.1	-3%	-4.7	-1.0	-3
O=C(c1cccc(Cl)c1)N1CCn2c1nc1ccccc12	0	?	-1	1.3	7%	0.1	-14	-7
CCCn1c(N)c(N(CCOC)C(=O)c2cc3c(s2)CCCCC3)c(=O)[nH]c1=O	-3	-1.5	-1	0.6	.	-3.3	-1.9	-17
C=CCNC(=S)N(CC)c1cccc2ccccc12	2	2.9	3	-0.3	.	0.1	-0.9	-37
Clc1cc(Cl)cc(CN2CCSCC2)c1	-3	1.4	-4	-0.5	.	-1.0	-1.5	4
Other structures.
SMILES	Beta cell apopt	RanGTP-Imp inh	Calb FLC	A1 inh	Vif TR-FRET	LANA-H2B inh	AF4-AF9 inh	T cruzi repl
O=C(NC(NC1CCS(=O)(=O)C1)C(Cl)(Cl)Cl)c1ccc(Br)cc1 (stereo not drawn)	-23	5.2	-12	0.1	2%	-1.5	.	12
O=C(Nc1c2c(nc3c1CCC3)CCCC2)c1ccccn1	12	-5.0	6	0.6	-6%	-3.8	.	1
Cc1ccc(-c2nnn(CC(=O)NCCC3=CCCCC3)n2)cc1	-2	-3.3	-3	-0.6	9%	-2.2	.	11
CCCCN(C(=O)c1cccc(S(=O)(=O)N2CC(C)OC(C)C2)c1)c1c(N)n(CCCC)c(=O)[nH]c1=O (stereo not drawn)	.	-0.9	0	0.8	.	1.1	-2.2	1
CC1(C)Cc2c(c(N3CCCC3)[nH]c(=S)c2C#N)CO1	.	?	7	-0.5	27%	3.6	.	-2
C=CCNC(=O)NC(=O)c1csc([N+](=O)[O-])c1	0	-4.4	4	-0.4	0%	2.9	-1.0	27
COc1cc2c(cc1OC)CN(CC(=O)Nc1ccc(Cl)c(S(=O)(=O)N(C)C)c1)CC2	0	-2.3	0	-0.5	0%	-3.2	.	12
COc1ccc(C(=O)N2CCCC(CNC(=O)c3ccccc3Cl)C2)o1 (stereo not drawn)	.	?	3	-0.8	1%	0.1	-11	8
O=C1CS(=O)CN1c1ccc(Oc2ccccc2)cc1 (stereo not drawn)	1	-4.5	5	0.6	.	2.0	-2.0	-1
CC[C@@]12C(=O)N(c3cccc(F)c3)C(=O)N1[C@H](c1ccc(F)cc1)[C@@H]1C(=O)N(C3CCCCC3)C(=O)[C@@H]12	0	0.7	-1	0.6	.	0.6	.	-9
COc1ccc(Cl)cc1NC(=O)c1cnc2sccn2c1=O	.	-4.3	3	-0.1	0%	-0.9	-0.2	9
Cc1ccc2c(c1)C1CN(C)CCC1N2C(=S)NC(=O)c1ccc(Br)cc1 (stereo not drawn)	24	-2.1	?	-0.5	7%	0.6	5.0	64*
COC(=O)C1=C[C@@H](C(=O)OC)[C@@H]2C3=C(C(=O)[C@@]2(C)NC(=O)c2ccccc2)[C@H](C)n2c(=O)n(C)c(=O)n2[C@@H]3C1	.	2.9	-8	0.3	.	-3.4	-1.9	-3
Cc1sc(NC(=O)c2ccc(Br)s2)c(C(N)=O)c1C	-2	1.4	66	-3.5	-7%	1.7	.	13
CCCn1c2c(c(O)c(C(=O)Nc3ccc(OC)cc3)c1=O)CCCC2	7	3.1	14	0.0	-1%	0.9	.	61*
CCCc1nnc(SCC(=O)N2CCCCC2)n1CC1CCCO1 (stereo not drawn)	-3	2.6	2	-0.9	0%	-0.6	.	-4
CSC1=NSC2=NC(=O)/C(=C/c3coc4ccc(O)cc4c3=O)C(=N)N12	2	.	.	-1.3	30%	-8.5	-0.9	-27
COc1ccc(CNC(=O)C2CC(c3ccc(F)cc3)=NO2)cc1 (stereo not drawn)	-3	5.1	12	0.1	0%	3.7	.	-13
Cc1c(C(C)(C)O)[nH]c2ccc(C(F)(F)F)cc12	5	0.0	-17	-1.1	.	-3.4	4.7	0
Cc1ccc(-c2nn(CC(=O)O)c(=O)c3ccccc23)cc1	-4	-1.5	?	0.5	5%	-6.8	.	-26
CCn1c(CCc2ccccc2)n[nH]c1=S	-5	-0.2	-4	-0.5	.	-6.1	2.9	-3
Cc1ccc(S(=O)(=O)N(C)CC(=O)OCc2nnc(-c3ccccc3)o2)cc1	-2	-6.6	6	-1.2	-1%	-7.7	.	-1
CCN(CCCNC(=O)CCNC(=O)Cn1ccc2ccccc2c1=O)c1ccccc1	.	?	-6	.	6%	.	.	9
Cc1ccccc1NS(=O)(=O)c1cc(C(=O)Nc2cccnc2)ccc1C	-4	-2.5	27	1.0	4%	-8.2	0.2	10
O=C(Nc1cccnc1)/C(N=Nc1cccnc1)=C(\O)c1ccccc1	1	-1.7	5	0.0	11%	.	.	15
(cont.)
SMILES	Beta cell apopt	RanGTP-Imp inh	Calb FLC	A1 inh	Vif TR-FRET	LANA-H2B inh	AF4-AF9 inh	T cruzi repl
CCc1cc(C(=O)Cc2nc3ccccc3s2)c(O)cc1OCC(=O)O	-1	4.8	-5	-0.6	10%	7.9	-1.0	0
COc1ccc(CNC(=O)c2cc3c(s2)CS(=O)C3)cc1 (stereo not drawn)	-6	6.5	-6	0.0	-11%	-2.4	-3.5	-17
COc1cc2c(cc1OC)C(c1ccc(-c3ccccc3Cl)o1)=NCC2	13	-15	0	0.2	4%	-2.5	19	.
COc1ccc(C2CC2/C(C)=N/OC(=O)c2cccs2)cc1 (stereo not drawn)	-14	3.1	-3	0.3	2%	1.3	.	-5
CCn1c(SCC(=O)N=Nc2c(O)[nH]c3ccccc23)nc2ccccc21	3	3.5	4	0.3	0%	-1.7	.	24
O=C(NCCc1ccccn1)C1CCN(S(=O)(=O)c2ccc(Cl)cc2)CC1	-2	0.3	11	-0.6	0%	0.7	1.8	-14
COC(=O)c1cc(CSc2nc3ccccc3[nH]2)oc1C	-3	2.5	3	-4.1	-2%	1.2	.	-6
CC(=O)Nc1ccc(NC(=S)Nc2ccc(F)cc2)cc1	2	4.1	-19	-0.7	-7%	5.1	-0.1	-15
CC(SCc1ccccc1)C(=O)N/N=C/c1cccs1 (stereo not drawn)	-15	1.0	-23	0.8	.	4.2	.	-3
COc1cc(/C=C2\SC(=O)NC2=O)ccc1OCc1ccc(Cl)nc1	33	-1.9	31	-0.6	-6%	1.0	3.5	9
COc1ccccc1NS(=O)(=O)c1cc(NC(=O)/C=C/c2cccs2)ccc1N1CCOCC1	35	-3.1	4	-0.7	8%	-0.5	2.2	27
CC1CCc2c(sc(NC(=O)C3c4ccccc4Oc4ccccc43)c2C(N)=O)C1 (stereo not drawn)	0	0.1	-13	-0.9	0%	-1.6	.	13
CC(C)c1ccc(NC(=O)c2snc3ccc(Cl)cc23)cc1	-5	-0.3	2	-1.5	-4%	-4.5	11	23
Cc1ccc(S(=O)(=O)Nc2cccc(C(=O)NCCCn3ccnc3)c2)cc1F	-10	-2.7	1	-0.7	-2%	-4.0	-2.6	-7
CC(=O)Cc1nsc(Nc2ccc(C)cc2)n1	-6	?	1	0.1	-4%	-3.6	-0.5	2
O=C(c1ccc(NC(=S)NCc2ccco2)cc1)N1CCOCC1	-6	-0.1	-2	1.0	?	-0.5	-4.1	-9
CCc1nn(CC(=O)NCCC(C)C)c(=O)c2cc3c(OC)cccc3n12	7	?	0	0.8	-8%	0.4	-1.2	-9
O=C(CC(C(=O)O)c1ccccc1)c1cccs1 (stereo not drawn)	.	0.0	-4	1.8	-5%	-9.3	-9.8	-20
CCOC(=O)c1ccc(Nc2cc(C)nc3ncnn23)cc1	4	4.6	-1	0.1	1%	-3.1	.	-12
Cc1ccc(C(=O)Nc2ccc3c(c2)OCO3)cc1S(=O)(=O)N1CCOCC1	-2	-0.8	2	-0.1	.	-5.8	2.1	-4
CCOC(=O)C(=O)Nc1ccccc1C#N	2	0.9	?	-0.1	13%	4.3	-0.6	-1
CC(=O)Nc1ccc(NS(=O)(=O)C(F)(F)F)cc1	-1	0.6	-9	0.9	3%	-3.3	.	0
COc1cccc(C(=O)NC2CCCc3ccccc32)c1OC (stereo not drawn)	1	-2.4	-10	0.0	.	-1.3	-0.3	21
O=C(O)c1ccc(Br)cn1	-3	2.8	6	0.7	-2%	-4.4	-0.9	-3
